# PKD1 kinase inh = PKD1 (human) kinase inhibition; PKD1 kinase fluorescence polarization assay; inhibition, %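 (about 10 µM by stock and volumes)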; 200,000 compounds, 0.056% hits; AID 797;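 active means inhibition of 50% or more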;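 further: controls were vehicle for no effect and a reference inhibitor for full effect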
# Target sequence (Q15139 whole entry, looked up): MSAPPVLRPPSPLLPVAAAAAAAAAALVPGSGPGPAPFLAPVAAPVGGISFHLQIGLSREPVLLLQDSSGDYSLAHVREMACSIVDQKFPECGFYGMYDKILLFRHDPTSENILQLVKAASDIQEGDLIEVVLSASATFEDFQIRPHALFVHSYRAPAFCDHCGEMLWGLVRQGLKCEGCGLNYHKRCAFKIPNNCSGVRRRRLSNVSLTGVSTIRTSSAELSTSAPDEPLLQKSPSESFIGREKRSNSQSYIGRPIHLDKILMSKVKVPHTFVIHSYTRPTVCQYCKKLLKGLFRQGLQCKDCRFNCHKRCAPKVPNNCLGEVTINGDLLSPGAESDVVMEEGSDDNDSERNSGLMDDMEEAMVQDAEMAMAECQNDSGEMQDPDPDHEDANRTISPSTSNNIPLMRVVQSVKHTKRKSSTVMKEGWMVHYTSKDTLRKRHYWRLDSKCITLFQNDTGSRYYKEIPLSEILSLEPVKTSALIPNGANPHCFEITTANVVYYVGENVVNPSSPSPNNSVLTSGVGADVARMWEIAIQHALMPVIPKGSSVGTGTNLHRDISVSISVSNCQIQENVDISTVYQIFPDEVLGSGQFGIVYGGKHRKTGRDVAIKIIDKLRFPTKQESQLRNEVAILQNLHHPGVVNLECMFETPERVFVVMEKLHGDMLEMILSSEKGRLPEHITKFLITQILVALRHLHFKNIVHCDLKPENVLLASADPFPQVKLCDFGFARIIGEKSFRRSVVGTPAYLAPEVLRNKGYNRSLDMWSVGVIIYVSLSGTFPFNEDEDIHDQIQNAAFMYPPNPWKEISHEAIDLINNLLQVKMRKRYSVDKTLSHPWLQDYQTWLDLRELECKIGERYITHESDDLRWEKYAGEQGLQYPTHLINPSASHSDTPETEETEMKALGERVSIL
# GALR2 agonist = agonists of human galanin receptor 2 (GALR2); GALR2-expressing cells, agonist activation read-out; activation, %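 (tested at 5 µM)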; 140,000 compounds, 0.48% hits; AID 803;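 active means above mean plus 3 SD of all compounds, about 5% in these data, not always enough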;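 further: 0% = vehicle buffer wells and 100% = reference agonist at full effect; tested in CHO reporter cells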
# RGS16-Gao = regulators of human RGS16-Galphao interaction. 220,000 compounds, 0.38% hits. bead-based flow cytometry RGS16-Galphao binding, fluorescence; actives lie on both sides. O15492+P09471. binding response (% of control), % at 10 µM;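 active means below 25% or above 175%, edge rows of some plates excepted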;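 further: Galphao activated by GDP with aluminum fluoride before binding; 100% = wells without compound and 0% = beads without RGS; some results beyond the cut were filed as inactive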
# Insulin prom inh = TRM-6 insulin promoter activity inhibition | TRM-6 cells (human fetal islet line), insulin promoter-eGFP reporter, imaging; reporter expression induced with tamoxifen | inhibition, % at 2 µM | 130,000 compounds, 0.9% hits | AID 1273;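 active means inhibition above the mean plus 3 SD, with well images judged a real hit on visual review, cut at about 60% in these data, passing the limit was not always enough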
# HSV replic up = HSV replication enhancement. 220,000 compounds, 0.005% hits. maximum fold increase. HSV replication augmentation in cells, fold increase. AID 1956;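 active means peak rise of 1.5-fold or more in the series; tested in PC3 cells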;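 further: first round at 10 µM; read as green reporter fluorescence; hits show the peak of a series up to 25 µM; 1 = signal of infected wells without compound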
# Insulin prom inh cell count = also measured in Insulin prom inh; calls as there; normalized cell count, %; measured here: cell count, toxicity; reference of the scale not given here;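 cells exposed to compound for 48 h; stained nuclei by imaging scaled within each plate; lower means fewer cells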
# HSV replic up primary fold = further read-out of HSV replic up, marked with its call; fold increase; compound at 10 µM; measured here: primary screen fold increase 10 uM; tested in PC3 cells;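 GFP signal in the first replicate; 1 = infected wells without compound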
# The depositor's hits bear a star; i = inactive; x = no result given.
SMILES,PKD1 kinase inh,GALR2 agonist,RGS16-Gao,Insulin prom inh,Insulin prom inh cell count,HSV replic up,HSV replic up primary fold
O=C(O)CCCCCN1C(=O)CCC1=O,11,-1.3,106,-15,55,i,1.1
COc1ccc(-c2cc(C(F)(F)F)n3nc(C(=O)Nc4c(C)n(C)n(-c5ccccc5)c4=O)c(Cl)c3n2)cc1,-1,x,100,x,x,i,0.71
Cc1ccc(-c2nn3c(C)nnc3s2)cc1N,5,-2.3,106,-238,107,i,1.1
N#C/C(N)=C(/C#N)N=Cc1cccc(Cl)c1,x,x,101,x,x,i,0.99
CC1(C)CC(=O)C2=C(C1)OC(N)=C([N+](=O)[O-])C2c1ccc(F)cc1 (centres undefined),x,x,94,x,x,i,1.1
CSc1nc(C)c2c(n1)N(c1ccc(F)cc1)CC2,13,-3.3,96,-135,138,i,0.93
OC(Cc1nc2ccccc2[nH]1)c1ccccc1Cl (centres undefined),-4,-0.6,93,x,x,i,1.1
O=C(NC1=NCCS1)c1cc2ccccc2o1,-10,-0.3,103,16,87,i,0.92
C=C(C)CCOC(=O)C(CC(=O)O)NCc1ccco1 (centres undefined),x,x,100,x,x,i,1
CC1=C(C)CS(=O)N(S(=O)(=O)c2ccccc2)C1 (centres undefined),3,0.4,91,29,116,i,0.89
CC(/C=N/NC(=O)c1ccc(Br)cc1)=C\c1ccccc1,-18,2.2,101,-10,117,i,0.96
C=CCNCC(=O)N1N=C(c2ccc3ccccc3c2)CC1c1ccc(OC)cc1 (centres undefined),-2,x,106,25,117,i,0.6
Cc1occc1C(=O)NC(C)CCc1ccccc1 (centres undefined),119*,-3.1,103,-8,114,i,0.97
CCOc1cc(C2/C(=C(/O)c3ccc(OC(C)C)cc3)C(=O)C(=O)N2CCCOC)ccc1O (centres undefined),-5,-3.3,100,11,166,i,0.97
CN(C(=O)CCn1c(=S)oc2ccccc21)C1CCCCC1,x,x,99,x,x,i,1
CCN1/C(=C/c2ccc3ccccc3[n+]2CC)C=Cc2ccccc21,7,0.2,98,-223,29,i,0.86
Cc1cc(C)nc(NC(=O)c2ccc([N+](=O)[O-])o2)n1,-7,0.0,90,-50,63,i,1.2
Cc1cc(NC(=O)CC(CN(C)S(=O)(=O)c2ccccc2)c2ccccc2)no1 (centres undefined),3,-2.5,86,x,x,i,0.95
CN(CC(=O)O)S(=O)(=O)c1ccc2c(c1)NC(=O)CC(=O)N2,2,x,100,x,x,i,0.99
COc1ccccc1C(CC(=O)Nc1ccccc1C)c1ccc(OC(C)C)cc1 (centres undefined),4,-3.1,103,18,121,i,1.1
O=C(OCC#CCSc1nnc(-c2ccncc2)o1)c1cccs1,5,0.5,88,-23,149,i,1
CCCOc1ccc(C2C(=O)N(C3CCCCCC3)CC(=O)N2Cc2ccco2)cc1OC (centres undefined),-1,0.6,123,0,76,i,0.99
Brc1ccc(COc2ncnc3ccccc23)cc1,0,x,98,x,x,i,0.87
Cn1cnnc1SCC(=O)Nc1cccc(S(=O)(=O)N2CCOCC2)c1,1,x,104,x,x,i,1.1
COc1ccccc1C(=O)Nc1cc2cc(Cl)ccc2oc1=O,-1,-0.4,105,21,47,i,1
CN(C)S(=O)(=O)N(CC(=O)N1CCC(Cc2ccccc2)CC1)c1ccccc1,-2,x,102,x,x,i,0.97
O=C(Cc1c(Cl)cccc1Cl)NCCc1ccc(Cl)cc1,-11,0.1,104,10,106,i,0.94
CC1(C)CC(=O)/C(=C(/O)CCCN2C(=O)c3ccccc3C2=O)C(=NC(C)(C)C)C1,-2,x,101,-73,110,i,0.96
Cc1ccc(S(=O)(=O)N(CC(=O)N(C)C)c2cccc([N+](=O)[O-])c2)cc1,-7,x,100,x,x,i,0.99
COC(=O)c1ccc(CSc2nc3ccccc3c(=O)n2CC(C)C)o1,6,-1.4,105,31,44,i,0.87
CCOc1ccc(Br)cc1S(=O)(=O)N1CCCC1,6,-1.4,107,61,89,i,0.98
CCCN1CN(CCc2ccccc2)CNC1=S,-1,-3.5,151,x,x,i,1.1
CC(C)(C)c1ccc(OCC(=O)NNC(=S)NC(=O)c2ccccc2[N+](=O)[O-])c(Br)c1,1,-1.8,91,x,x,i,1
C#CCNC(=O)C1=C[C@H](c2ccccc2)[C@@H](CCCO)[C@H](OCC)O1,9,x,100,x,x,i,0.87
O=C(COc1ccc(Cl)cc1Cl)N/N=C1\CCCc2ccccc21,0,-3.2,5,x,x,i,1.1
CCCC(=O)Nc1ccccc1NC(=O)CCC,3,-2.1,81,-356,37,i,1.1

# Exported as tab-separated lines: 2 of the compounds above.
Compound	PKD1 kinase inh	GALR2 agonist	RGS16-Gao	Insulin prom inh	Insulin prom inh cell count	HSV replic up	HSV replic up primary fold
CC(C)(C)c1ccc(OCC(=O)NNC(=S)NC(=O)c2ccccc2[N+](=O)[O-])c(Br)c1	1	-1.8	91	x	x	i	1
C#CCNC(=O)C1=C[C@H](c2ccccc2)[C@@H](CCCO)[C@H](OCC)O1	9	x	100	x	x	i	0.87

# Additional structures follow:
SMILES,PKD1 kinase inh,GALR2 agonist,RGS16-Gao,Insulin prom inh,Insulin prom inh cell count,HSV replic up,HSV replic up primary fold
O=C(O)c1ccc(-c2ccc(Cl)cc2Cl)o1,-3,-4.2,106,30,119,i,1
O=C1c2ccccc2C2(c3ccc(F)cc3)NCCN12 (centres undefined),-3,x,98,24,103,i,1.2
O=C(COC(=O)CNC(=O)c1cccc([N+](=O)[O-])c1)Nc1cccc(S(=O)(=O)N2CCCCC2)c1,2,-1.6,101,-3,102,i,1.1
Cc1nc2sc(C(c3ccccc3)N3CCN(C(=O)c4ccco4)CC3)c(O)n2n1 (centres undefined),-4,-2.3,102,-219,86,i,0.8
CCN(CC)S(=O)(=O)c1ccc(OC)c(NC(=O)CSc2cc(C)ccc2C)c1,-7,0.7,91,-11,108,i,1
C=CCOc1ccc(CNc2ccc(NC(=O)CCC)cc2)cc1OCC,0,0.4,102,x,x,i,0.98
CC(C)OC(=O)c1c(F)c(F)c(N2CCOCC2)c(F)c1F,-7,-3.3,101,x,x,i,0.87
CN(C)NC(=S)NC1(C)CCS(=O)(=O)C1 (centres undefined),x,x,63,x,x,i,0.98
COc1ccccc1-n1cnc2cc(C(=O)NCC3CCCO3)ccc21 (centres undefined),-5,-0.6,102,-14,110,i,0.96
CCC1=Nc2cc(C(=O)O)ccc2Sc2ccc(Cl)cc21,-7,-2.6,103,2,101,x,x
NC1=NC[C@@H](Cc2ccc(O)cc2)N1CCc1cccc2ccccc12,x,x,109,x,x,i,0.72
CCCCOc1ccc(Cc2n[nH]c(=S)n2N)cc1,14,-1.7,35,-28,103,i,0.93
N#CCOC(=O)c1c2c(nc3ccccc13)CCC2,2,x,105,-58,103,i,0.95
CCCCN1C(=O)CC(Sc2ncccc2C(=O)O)C1=O (centres undefined),-6,x,102,x,x,i,0.95
CCOC(=O)c1cc2c(ccn2C)n1CC(=O)N1CCN(c2ccccc2)CC1,1,0.0,-15,x,x,i,0.75
CC(C)=C1SC(N2CCN(c3cccc(Cl)c3)CC2)=NC1=O,-15,-0.1,97,-4,97,i,0.91
Cc1cccc(N(C(=O)Cn2nnc(-c3ccccc3F)n2)C(C(=O)NC(C)(C)C)c2ccncc2)c1 (centres undefined),-10,x,101,x,x,i,0.91
C=CCN(CC(=O)NCc1ccccc1)C(=O)c1csnn1,-11,-1.0,x,-29,76,i,0.94
COc1ccc(OCc2nnc(SC3CCOC3=O)n2-c2ccccc2)cc1 (centres undefined),-2,-1.5,103,x,x,i,0.75
COc1ccccc1NC(=O)CN1CCN(C(=O)c2ccco2)CC1,0,-4.0,108,11,116,i,0.84
CCOC(=O)C1=C(CC)OC(N)=C(C#N)C1c1ccc(OC)cc1OC (centres undefined),-15,-1.3,65,x,x,i,0.68
COCCNCC(O)CON=C1c2ccccc2-c2ccccc21 (centres undefined),-8,x,99,-89,76,i,0.6
NC1=NC(=O)/C(=C/c2cn(CCC(=O)O)nc2-c2ccc(Cl)cc2)S1,-7,-0.3,103,-26,132,i,1.1
Cc1ccc(Nc2cc(C)nc(NCc3ccccc3)n2)cc1,-1,1.1,114,x,x,i,0.53
O=C(N/C(=C/c1cccnc1)C(=O)N1CCOCC1)c1ccccc1Br,12,-1.0,101,-3,103,i,1
c1ccc2c(c1)nc(Nc1ccc3c(c1)OCO3)c1nnnn12,-7,-0.1,121,22,92,i,0.93
CCOC(=O)CN1CC23C=CC(O2)C(C(=O)NCCc2ccccc2)C3C1=O (centres undefined),-4,-2.4,96,x,x,i,1.2
O=C(c1ccco1)N1CCN(C(=O)C2CCN(S(=O)(=O)Cc3ccccc3)CC2)CC1,-14,-1.5,159,x,x,i,1
CCOC(=O)CN(c1cccc(C(C)=O)c1)S(C)(=O)=O,0,-0.3,93,-29,150,i,1.1
O=C(c1cccnc1)C1Cc2ccccc2C1=O (centres undefined),x,x,104,x,x,i,1.1
CC(C/C=N/NC(=O)COc1cc(Cl)ccc1Cl)c1ccccc1 (centres undefined),-12,-0.4,99,x,x,i,0.83
C=CCn1cc(/C=N\NC(=O)c2cc3c(ccc4ccccc43)o2)c2ccccc21,-2,-0.2,100,-36,102,i,0.95
CCOc1ccc2nc(SCC(=O)Nc3nonc3C)[nH]c2c1,-7,x,98,x,x,i,0.91
O=C(CCc1ccc(S(=O)(=O)N2CCOCC2)cc1)N/N=C/c1cccc(O)c1,-11,0.9,107,3,81,i,0.82
Cc1cccc2nc(-c3ccccc3)nc(N3CCC(O)(c4ccc(Cl)cc4)CC3)c12,-8,-0.2,86,-455,71,i,0.97
CCOC(=O)/C(C#N)=C/c1cc2ccccc2nc1N1CCOCC1,0,-0.2,108,-18,118,i,1.1

# Structures shown so far that contain a furan ring, fused or not (eleven):
SMILES,PKD1 kinase inh,GALR2 agonist,RGS16-Gao,Insulin prom inh,Insulin prom inh cell count,HSV replic up,HSV replic up primary fold
O=C(NC1=NCCS1)c1cc2ccccc2o1,-10,-0.3,103,16,87,i,0.92
C=C(C)CCOC(=O)C(CC(=O)O)NCc1ccco1 (centres undefined),x,x,100,x,x,i,1
Cc1occc1C(=O)NC(C)CCc1ccccc1 (centres undefined),119*,-3.1,103,-8,114,i,0.97
Cc1cc(C)nc(NC(=O)c2ccc([N+](=O)[O-])o2)n1,-7,0.0,90,-50,63,i,1.2
CCCOc1ccc(C2C(=O)N(C3CCCCCC3)CC(=O)N2Cc2ccco2)cc1OC (centres undefined),-1,0.6,123,0,76,i,0.99
COC(=O)c1ccc(CSc2nc3ccccc3c(=O)n2CC(C)C)o1,6,-1.4,105,31,44,i,0.87
O=C(O)c1ccc(-c2ccc(Cl)cc2Cl)o1,-3,-4.2,106,30,119,i,1
Cc1nc2sc(C(c3ccccc3)N3CCN(C(=O)c4ccco4)CC3)c(O)n2n1 (centres undefined),-4,-2.3,102,-219,86,i,0.8
COc1ccccc1NC(=O)CN1CCN(C(=O)c2ccco2)CC1,0,-4.0,108,11,116,i,0.84
O=C(c1ccco1)N1CCN(C(=O)C2CCN(S(=O)(=O)Cc3ccccc3)CC2)CC1,-14,-1.5,159,x,x,i,1
C=CCn1cc(/C=N\NC(=O)c2cc3c(ccc4ccccc43)o2)c2ccccc21,-2,-0.2,100,-36,102,i,0.95

# Source: PubChem (several laboratories)
